High-throughput results (PubChem)
Rce1 inhib: inhibitors of yeast Ras-converting enzyme. AID 2563. calls only. 290,000 compounds, 0.27% hits. yeast membranes, quenched prenylated peptide cleavage fluorescence. Q03530;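 active means fall in fluorescence gain of 50% or more versus controls, with final raw signal at or below 3038400; inconclusive means same 50% fall but final raw signal above 3038400; inactive means fall in fluorescence gain under 50%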;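 further: plate controls were neutral control wells for no effect and wells lacking membranes for full effect; tested at 10 µM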
Yeast UUG start: yeast start codon fidelity modulation; S. cerevisiae UUG-firefly luciferase reporter, luminescence/redox ratio; activity score, % at 18.7 µM; 350,000 compounds, 0.13% hits; AID 602363;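 active means replicate mean at a twofold rise or more, about +100% in these data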;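 further: firefly luciferase made from a UUG start codon reports start codon fidelity; reporter light over untreated wells divided by growth signal over untreated wells; some hits fall short of that in this replicate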
eIF4H FP inh: inhibitors of RNA binding by human eIF4H; Q15056; eIF4H fluorescence polarization binding assay; inhibition, % at 35 µM; 290,000 compounds, 0.94% hits; AID 2012;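 active means 50% or more with normal probe brightness, or confirmed in later tests; inconclusive means above 50% with abnormal brightness, or retests that disagree; inactive means below 50% or failed in later tests; about a fifth of its hits are not listed in these tables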;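 further: calls also rest on retests at 20 µM and on dose response follow-up; 0% = protein and probe with vehicle and 100% = probe without protein; strong numbers were not always called active; many hits fall short of the cut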
Env fusion inh: inhibitors of HIV Env-mediated cell fusion | 360,000 compounds, 1.1% hits | HeLa-JRFL Env/CEM21 cell fusion, luciferase | inhibition, % at 12.3 µM;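 active means mean replicate inhibition score of at least 50 and every replicate individually at or above 50; inconclusive means only one of the two criteria met; inactive means mean below 50 and not all replicates reaching 50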;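 further: 0% = plate neutral controls and 100% = maraviroc near 300 nM; one replicate is shown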
CSC inhib: cancer stem cell inhibition | cancer stem cell-like cells viability, luminescence | inhibition, % at 7.5 µM | 300,000 compounds, 1.1% hits | AID 2717;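 active means mean at 75% or more and at least half the replicates too; inconclusive means mean and replicates disagree; tested in HMLE shEcad cells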;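 further: 0% = median of negative and 100% = median of positive control wells; the first replicate is given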
PABP polyA inh: PABP-poly(A) binding inhibition; inhibition, % at 35 µM; PABP-poly(A) RNA binding, fluorescence polarization; P11940; AID 2014; 290,000 compounds, 1% hits;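 active means 50% or more with normal probe brightness, or confirmed in later tests; inconclusive means above 50% with abnormal brightness, or retests that disagree; inactive means below 50% or failed in later tests; about a fifth of its hits are not listed in these tables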;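 further: calls also rest on retests at 20 µM and on dose response follow-up; controls were probe without protein and protein plus probe with vehicle; some compounds called inactive have numbers as strong as hits; many hits fall short of the cut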
Target sequence (P11940 whole entry, looked up): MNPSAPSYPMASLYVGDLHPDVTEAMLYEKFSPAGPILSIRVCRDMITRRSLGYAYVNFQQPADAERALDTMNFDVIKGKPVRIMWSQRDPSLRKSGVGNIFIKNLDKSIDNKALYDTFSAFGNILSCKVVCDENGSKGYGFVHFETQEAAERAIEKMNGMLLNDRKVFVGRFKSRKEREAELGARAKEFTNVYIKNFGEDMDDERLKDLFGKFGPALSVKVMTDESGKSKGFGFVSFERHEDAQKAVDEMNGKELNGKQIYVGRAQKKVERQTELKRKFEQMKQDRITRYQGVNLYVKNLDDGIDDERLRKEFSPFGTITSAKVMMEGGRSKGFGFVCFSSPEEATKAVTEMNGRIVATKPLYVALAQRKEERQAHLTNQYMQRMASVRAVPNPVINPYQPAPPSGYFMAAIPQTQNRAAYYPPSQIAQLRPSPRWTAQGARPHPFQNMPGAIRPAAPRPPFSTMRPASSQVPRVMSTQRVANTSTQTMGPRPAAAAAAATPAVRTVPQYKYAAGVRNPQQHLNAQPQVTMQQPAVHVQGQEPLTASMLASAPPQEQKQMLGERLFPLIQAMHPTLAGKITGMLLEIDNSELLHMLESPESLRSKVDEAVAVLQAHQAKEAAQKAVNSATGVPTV
MT1-MMP act inh: blocks activation of human MT1-MMP; P50281; HT1080 RFP-PRO-GFP cells, GFP/RFP ratio fluorescence, overnight; percent of plate control window, DMSO zero; GFP/RFP ratio change, % at 20 µM; 360,000 compounds, 0.061% hits;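 active means GFP/RFP ratio change of at least 30% with cell ATP level not reduced by more than half and red fluorescence within 50% of control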; further: strong numbers were not always called active
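Assay system: HT1080 RFP-PRO-GFP cells | Dosing: 20 µM single dose, 1% DMSO | Incubation: Cells overnight before dosing, compound overnight, 37 °C, 5% CO2 | Evaluation: GFP/RFP fluorescence ratio | Control set: DMSO-only wells and HT1080 RFP-L50D-GFP cell wells as references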
eIF4H FP inh retest: further read-out of eIF4H FP inh, marked with its call; inhibition, %; compound at 20 µM; confirmation average;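 mean of two retest wells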
PABP polyA inh retest: further read-out of PABP polyA inh, marked with its call; inhibition, %; compound at 20 µM; confirmation repeats;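 mean of two retest wells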
MT1-MMP act inh RFP: also measured in MT1-MMP act inh; calls as there; RFP signal change, %; measured here: RFP expression control read;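 0 = vehicle wells; hits needed this value within 50% of zero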
Starred values were filed as active, the others as inactive; i = inactive; ? = inconclusive; · = not tested or not shown.

SMILES | Rce1 inhib | Yeast UUG start | eIF4H FP inh | Env fusion inh | CSC inhib | PABP polyA inh | MT1-MMP act inh | MT1-MMP act inh RFP | others
COCCN1C(=O)C(O)=C(C(=O)c2cccs2)C1c1ccccc1 (centres undefined) | i | -15.9 | -4.6 | · | 1.4 | 3.7 | -11.6 | -1.8
O=C(CNc1ccc2ccccc2c1)N/N=C/c1ccc(C(=O)O)cc1 | i | -11.6 | 9.8 | -7.9 | -16.6 | 5.8 | -10.0 | 6.9
CCCCN(CCCC)C(=O)C1CC=CCC1C(=O)O (centres undefined) | i | · | 5.5 | -3.9 | -9.7 | -8.6 | -3.2 | 1.7
O=C(Nc1ccc2c(c1)OCO2)O[C@@H]1C[C@H]2CCC(=O)N3CC[C@@H](C1)[C@@H]23 | i | 7.5 | -8.8 | -13.8 | 1.3 | 6.2 | -0.4 | 3.6
CC(=O)Nc1ccccc1OCc1nnc(-c2ccc(Cl)cc2)o1 | i | -12.7 | -5.3 | -14.0 | 0.2 | ? | 2.1 | -4.6
CCOc1ccc(CN2C(=O)c3ccccc3C2=O)cc1C(=O)NC1CC(C)(C)NC(C)(C)C1 | · | -10.8 | · | · | -23.1 | · | -0.7 | 1.0
O=C(COc1ccccc1)Nc1ccccc1Oc1ccccc1 | i | · | 5.6 | -7.5 | 8.3 | -1.8 | -3.0 | -1.0
Cc1ccsc1/C=N/n1c(-c2ccncc2)n[nH]c1=S | i | -13.9 | -1.6 | 29.2 | 0.6 | 0.3 | 1.9 | -2.0
CC(C)NC(=O)C1(C)CCCN1Cc1ccccc1 (centres undefined) | · | -11.2 | · | -18.7 | · | · | 0.1 | 5.4
C=CCn1c(SCc2ccccc2)nc2scc(-c3ccc(C)o3)c2c1=O | i | 8.0 | -2.4 | -4.2 | 9.3 | 0.4 | -4.4 | -3.3
CC1=C(C(=O)N(C)C)CC(CC(=O)NCc2cccc3ccccc23)C(=O)N1Cc1ccc(F)cc1 (centres undefined) | · | 54.9 | · | -4.4 | · | · | -1.4 | 0.5
COc1ccc(-n2c(O)c(C=NCc3ccccn3)c3ccccc3c2=O)c(OC)c1 | i | -7.1 | -14.0 | -3.8 | 32.3 | 4.6 | 3.4 | 4.4
COc1ccccc1N1CCN(C(=O)c2cn(Cc3ccccc3)nc2-c2cccnc2)CC1 | · | -10.0 | · | · | -19.9 | · | -1.2 | 0.5
C#Cc1cccc(C(=O)N2CCCC(C(=O)c3ccc(OC)cc3C)C2)c1 (centres undefined) | i | 13.3 | 0.0 | -24.5 | -0.8 | -8.1 | 2.0 | 1.8
CCC(NC(=O)C1CCCO1)c1ccccc1 (centres undefined) | i | -8.8 | -4.5 | -15.2 | -1.2 | 0.6 | 5.3 | 3.7
CCC(Cc1ccccc1)NC(=O)c1cc(S(=O)(=O)N2CCCCC2)c[nH]1 (centres undefined) | i | -18.2 | -6.4 | -59.2 | 3.1 | -9.8 | -5.2 | -1.6
CC(Sc1ccc(S(=O)(=O)N(C)C)cn1)C(=O)NC1CCCC1 (centres undefined) | · | -2.8 | · | -45.3 | -13.8 | · | -1.7 | 2.3
CN(CCOc1ccccc1)CC(=O)Nc1ccc(Cl)cc1[N+](=O)[O-] | i | 7.4 | 8.4 | 3.5 | 0.9 | 13.5 | 0.4 | -1.8
O=C(c1cc(C2CC2)nn1-c1ccccc1)N1CCN(Cc2ccccc2)CC1 | · | -17.2 | · | 5.2 | · | · | 2.2 | 4.7
O=C1CSc2ccccc2N1Cc1ccccc1F | i | -8.2 | -2.8 | · | -9.4 | -5.5 | -7.9 | 0.4
Cc1ccc(S(=O)(=O)N(C)C)cc1NC(=S)Nc1ccc2[nH]c(=O)[nH]c2c1 | i | · | -3.0 | 7.2 | -16.0 | -1.3 | 1.3 | 0.7
Cc1cc(NC(=O)CSc2nnc(-c3cccc(F)c3)n2N)no1 | · | -5.5 | · | · | 4.6 | · | -3.0 | 3.9
COc1ccc(-c2ccc(SCC(=O)Nc3nccs3)nn2)cc1OC | i | · | -7.6 | 5.3 | 5.2 | -13.0 | 1.4 | -1.5
O=C(Cc1cccs1)NCCS(=O)(=O)N1CCN(c2ccccc2F)CC1 | i | · | · | 4.1 | -15.9 | · | -1.7 | -3.4
CC1(C)Cc2c(C#N)c(NC3CCCCC3)nc(-c3ccco3)c2CO1 | i | -7.9 | -1.4 | · | 77.4* | 0.2 | -12.3 | 1.0

(listing goes on)
SMILES | Rce1 inhib | Yeast UUG start | eIF4H FP inh | Env fusion inh | CSC inhib | PABP polyA inh | MT1-MMP act inh | MT1-MMP act inh RFP | others
Cc1ccc(-n2c(SCn3nnc4ccccc4c3=O)nnc2-c2cccnc2)c(C)c1 | i | -9.3 | 2.1 | · | -18.3 | -9.6 | -4.0 | 3.4
CC1CCN(S(=O)(=O)c2ccc3ncn(CC(=O)N(C)C4CCCCC4)c(=O)c3c2)CC1 | i | · | -8.4 | 1.5 | -3.6 | 12.5 | 6.9 | 2.5
CCCCOc1ccc(C(=O)N/C(=C/C=C/c2ccccc2)C(=O)N2CCOCC2)cc1 | i | · | -7.5 | -15.1 | 26.1 | 2.3 | -6.3 | -4.6
CC(C)CCNC1=NCCCCC1 | i | -3.0 | -14.3 | · | 22.5 | -6.8 | -4.9 | 3.5
CCCCCCCCCC(=O)NNC(=O)c1c(O)c2ccccc2n(CCC)c1=O | i | · | 12.9 | 9.9 | -8.3 | 16.1 | -8.0 | -11.4
O=C(O)c1cn2c3c(ccc(Cl)c3c1=O)OCC2 | i | 0.7 | 5.1 | 5.9 | -7.7 | 8.3 | 2.5 | 1.5
Cc1c(Br)c([N+](=O)[O-])nn1CC(=O)N1CCN(C23CC4CC(CC(C4)C2)C3)CC1 | i | -9.3 | -13.7 | 6.4 | 27.6 | -4.2 | 2.6 | 1.8
COc1ccc(CCC(=O)NCCS(=O)(=O)N2CCN(c3ccccc3F)CC2)cc1 | i | -4.3 | · | -0.9 | -4.6 | · | 1.1 | -2.2
Cc1cccnc1NC(=O)C1CCCN(S(=O)(=O)c2ccc3c(c2)oc(=O)n3C)C1 (centres undefined) | i | -22.1 | 1.7 | 5.1 | -7.7 | -4.6 | -1.6 | 1.4
Cc1onc(-c2ccccc2)c1-c1n[nH]c(=S)n1-c1ccc(C(=O)O)cc1 | i | -0.7 | -0.7 | · | -21.9 | -1.6 | 2.1 | 2.0
COc1ccccc1C(=O)NCC(=O)Nc1cccnc1 | i | · | -6.1 | · | 5.7 | -3.4 | 0.4 | -0.2
CCOc1ccccc1Nc1ccc2nonc2c1[N+](=O)[O-] | i | -12.0 | -4.7 | -46.9 | -3.7 | -7.0 | 9.7 | 3.0
CC(c1nnnn1C(C)(C)C)N(Cc1cccnc1)Cc1ccccc1Cl (centres undefined) | i | -16.6 | -6.1 | 10.8 | -4.1 | -2.1 | -6.8 | -1.6
CCOc1ccc2nc(N3CCC(C(=O)N4CCN(c5ncccn5)CC4)CC3)sc2c1 | i | -4.4 | -5.3 | 16.6 | 5.5 | -2.9 | 4.6 | -12.8
CCC(C)(C(=O)NC1CCCC1)N(C(=O)Cc1cccs1)c1c(C)n(C)n(-c2ccccc2)c1=O (centres undefined) | i | · | 2.3 | 2.8 | -16.5 | 7.4 | 0.0 | 6.2
COc1ccc(N2CCN(C(=O)C3COc4ccccc4O3)CC2)cc1 (centres undefined) | i | 7.7 | -0.2 | 24.6 | -1.4 | 2.6 | 1.4 | -5.3
CC(C)[C@H](NC(=O)c1ccccc1)C(=O)Nc1cccc(S(=O)(=O)N2CCOCC2)c1 | · | -10.1 | · | -33.5 | · | · | -0.2 | -0.6
COc1ccc(/C=C(\C#N)c2cc(OC)c(OC)cc2[N+](=O)[O-])cc1 | i | -28.6 | 45.4 | -5.9 | -10.3 | 18.4 | -1.2 | 1.2
COc1cc(CNc2ccccc2)c([N+](=O)[O-])cc1OC | i | -9.4 | -1.8 | 5.7 | -15.3 | 5.0 | 9.6 | 3.5
Cc1cc(Nc2ncc(Cl)cc2Cl)n(-c2ccccc2)n1 | i | -10.4 | -9.1 | 13.3 | -0.5 | 0.2 | -6.8 | -6.3
CC(C)NC(=O)c1ccc2c(c1)nnn2C | i | · | -1.0 | -29.8 | -11.2 | -0.1 | -4.9 | -0.1
CC1CC1C(=O)N1CCN(S(=O)(=O)c2cccc(F)c2)CC1 (centres undefined) | i | 13.2 | · | -12.1 | -5.4 | · | -0.6 | -0.4
COc1cccc(-c2nc(CS(=O)(=O)CC(=O)NCC(C)c3ccccc3)c(C)o2)c1 (centres undefined) | i | -9.0 | 1.8 | 23.4 | 6.7 | -8.9 | -2.8 | -3.5
Cc1ccc(S(=O)(=O)c2ccc(Oc3cccc(C)c3)cc2)cc1 | i | 3.3 | 3.5 | -21.1 | 9.0 | 11.4 | 1.6 | -0.9
CC(C)c1nc(SCC(=O)Nc2ccc3c(c2)OCCO3)n[nH]1 | i | · | -7.6 | 10.2 | -20.3 | -18.4 | -1.7 | -1.2

The last 3 records of the section above open the next one.
SMILES | Rce1 inhib | Yeast UUG start | eIF4H FP inh | Env fusion inh | CSC inhib | PABP polyA inh | MT1-MMP act inh | MT1-MMP act inh RFP | others
COc1cccc(-c2nc(CS(=O)(=O)CC(=O)NCC(C)c3ccccc3)c(C)o2)c1 (centres undefined) | i | -9.0 | 1.8 | 23.4 | 6.7 | -8.9 | -2.8 | -3.5
Cc1ccc(S(=O)(=O)c2ccc(Oc3cccc(C)c3)cc2)cc1 | i | 3.3 | 3.5 | -21.1 | 9.0 | 11.4 | 1.6 | -0.9
CC(C)c1nc(SCC(=O)Nc2ccc3c(c2)OCCO3)n[nH]1 | i | · | -7.6 | 10.2 | -20.3 | -18.4 | -1.7 | -1.2
O=C(c1ccc2c3c(cccc13)CC2)C1CCCN(Cc2cccnc2)C1 (centres undefined) | i | -9.1 | -13.8 | 26.6 | · | 3.0 | 1.2 | -2.7
COc1cc(/C=C/C(=O)O)cc(S(=O)(=O)Nc2ccc(F)cc2)c1OC | i | -18.6 | -8.5 | 19.2 | -18.1 | -4.4 | 4.1 | 6.7
CCOC(=O)C1=C(O)/C(=C/c2cn(CC(=O)N3CCCC3)c3ccccc23)SC1=Nc1ccccc1 | · | -45.8 | -4.6 | · | · | -18.0 | 2.6 | 6.9
COc1ccc(C(=O)OCC(=O)N2C(C)CCCC2C)cc1[N+](=O)[O-] (centres undefined) | i | · | 18.2 | -1.9 | -13.3 | 65.0 | 2.0 | 6.1 | eIF4H FP inh retest=9.7;PABP polyA inh retest=13.5
COCc1ccc(CN2CCCC(CO)(Cc3cccc(Cl)c3)C2)o1 (centres undefined) | i | -11.8 | -1.0 | 8.2 | 38.2 | -8.8 | -1.6 | 0.2
COc1ccc([C@H]2C[C@@H](O)[C@H](n3cc(-c4ccc(F)cc4)nn3)CN2CC2CCCCC2)cc1 | · | -12.3 | · | -1.0 | · | · | -3.1 | -5.5
CCN(CC)S(=O)(=O)c1ccc(/C=C/C(=O)OCC(=O)Nc2ccc(S(N)(=O)=O)cc2)cc1 | i | · | 2.0 | -15.8 | 4.2 | -2.6 | 4.3 | 3.4
CCN(CC)C(=O)C1=C(C)N(Cc2ccccc2)C(=O)C(CC(=O)NCCN2CCOCC2)C1 (centres undefined) | · | -20.5 | · | -13.4 | · | · | -0.4 | 3.8
O=C1NCCC/C1=N\Nc1ccc(Br)cc1 | i | · | -3.8 | -10.0 | -5.4 | 4.3 | -1.3 | 0.6

Only part of the results is shown, so the mix of outcomes need not match the whole.
